# Sa ugtP lethal: growth inhibition of ugtP-null S. aureus, primary screen, RN4220 ugtP deletion, OD600 | 16 h; some inactives read as strong as hits | AID 1259309, 2017 | growth inhibition, % (test concentration not listed) | 330,000 compounds, 0.54% hits;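 active = z-score under -3 and OD600 up to 0.15 on both plates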;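 also: plate controls were untreated wells for no effect and antibiotic for full effect; wells of about 80 µL received 100 nL stock; the first replicate is given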
# PrP UTR inh: inhibition of PrP 5' UTR reporter expression; 340,000 compounds, 0.35% hits; inhibition, % (test concentration not listed); cell-based PrP 5' UTR mRNA reporter, plate reader;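 active = every replicate at 50% or more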;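 also: 0 = median of the neutral control wells; tested in H4 reporter cells; numbers are from one replicate; inactives centre near -14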
# Sa RN4220 lethal: growth inhibition of S. aureus RN4220, primary screen, OD600 | 16 h | inhibition, % (test concentration not listed) | 330,000 compounds, 0.33% hits;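 active = z-score of -3 or lower and OD600 up to 0.18 on both plates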;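 also: plate controls were untreated cells for no effect and reference antibiotic for full effect; stock transfer was 100 nL into about 80 µL; one replicate is shown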
# Autofluor counter: counter-screen for toxin protease inhibitors: compound fluorescence; compound autofluorescence counterscreen, microsphere flow cytometry; hits give high values; fluorescence intensity (concentration not given with the values); 360,000 compounds, 3.1% hits; AID 624483;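 active = at least 3 SD above the mean of all compounds, about 16000 in these data; inconclusive = too few beads counted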;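 also: 100 nL of 1 mM stock went into each well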
# BJeLR lethal: MLPCN primary cell-based screen for lethality selective to Ras in HRASV12 cells | BJeLR (HRASV12) viability, CellTiter-Glo ATP luminescence, 48 h; reference of the scale not given here | inhibition, % (test concentration not listed) | 300,000 compounds, 0.17% hits;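 active = replicate mean above 50%; inconclusive = above 50% but judged a plate artefact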;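 also: 50 nL library stock added to about 25 µL; numbers are from one replicate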
# Mtb hypoxia inh: PubChem AID 1159583. M. tuberculosis hypoxia-regulated fluorescent reporter, fluorescence. fluorescence inhibition, % (concentration not given with the values). 300,000 compounds, 0.1% hits;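 active = 35 to 45% if threefold the growth effect, above 45% if 1.5-fold the growth effect; inactive = the rest, general growth blockers included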;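 also: wells of about 50 µL received 100 nL stock; 0% = vehicle wells and 100% = reference inhibitor wells; whole bacteria with a GFP reporter of the hypoxia response; strong numbers were not always called active; many hits fall short of the cut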
# Mtb hypoxia inh growth: also measured in Mtb hypoxia inh; calls as there; growth inhibition, %; measured here: M. tuberculosis growth (absorbance);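 0% = vehicle and 100% = reference antibiotic; read after six days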
# * marks the source's active call; other numbers are inactive results; u = inconclusive; x = not tested or not shown.
structure,Autofluor counter,PrP UTR inh,Sa ugtP lethal,Mtb hypoxia inh,Sa RN4220 lethal,Mtb hypoxia inh growth,BJeLR lethal
CN(C)C(=O)CCc1ccc2c3c([nH]c2c1)[C@]1(CCC2CCCC2)[C@@H](C(=O)N2CCOCC2)C[C@H](CC(=O)NCC24CC5CC(CC(C5)C2)C4)C(=O)N1CC3,3479,-44,-10,-1,-11,-6,x
O=C(CCC(=O)N1CCN(c2ccc(Cl)c(Cl)c2)CC1)c1ccccc1,5340,-15,-7,0,-3.0,-2,-11
Cc1nc2ccccc2c(=O)n1-c1ccc(NS(=O)(=O)c2ccc(F)cc2)cc1,5146,-1,-2,12,0.1,7,10
CCCOc1cccc(OCCSc2nc(C)cc(=O)[nH]2)c1,11191,-14,1,2,12,3,-9
CCO[C@@H]1OC(C(=O)NCc2nc3ccccc3[nH]2)=C[C@H](C2CCCCC2)[C@H]1CCCO,3783,-14,-2,10,-11,5,-9
COc1ccc(CC(=O)Nc2cccc(C(=O)NN3C(=O)c4ccccc4C3=O)c2C)cc1,2064,-10,0,-3,0.9,-4,-3
CCOC(=O)c1c(-c2ccc(C)cc2)csc1NC(=O)CCN1CC(C)OC(C)C1 (stereo not drawn),2005,6,8,0,-4.4,1,3
Oc1ccc(Nc2ccc3ccccc3c2)cc1,3231,x,-15,-2,-3.3,-6,x
O=C1c2ccccc2NC(c2ccc3c(c2)OCCO3)N1c1ccc2c(c1)OCCO2 (stereo not drawn),3214,-30,-12,2,-7.0,10,4
c1ccc(CN(Cc2cccs2)C(c2cccs2)c2nnnn2C2CCCC2)cc1 (stereo not drawn),2508,-23,6,x,4.0,x,5
Cc1ccc(Cn2ccc(=O)c(Cc3c(Cl)cccc3Cl)c2C)cc1,2615,1,101*,8,100*,8,1
Nc1nonc1OCCCCOc1nonc1N,3994,-17,2,9,1.4,-3,6
CCOC(=O)CSc1nc2sc(C)c(C)c2c(=O)n1N,1981,9,-2,3,0.9,-5,-2
O=C(Nc1ccc(Cl)cc1)N1CCc2[nH]c3ccccc3c2C1,2663,-24,-1,x,-0.4,x,-2
CN(C)S(=O)(=O)c1cccc(COC(=O)c2ccc(Cl)cc2O)c1,3727,8,11,13,7.8,12,-2
CC(C)(C)OC(=O)N1CC(O)CC1C(=O)OCC(=O)c1ccccc1 (stereo not drawn),3178,-24,14,0,4.7,0,-20
CC(=O)Nc1nccc(-c2cc(-c3ccccc3)no2)n1,x,x,10,7,4.4,5,10
Cc1cc(C)c(C#N)c(SCC(=O)Nc2nnc(-c3ccccc3)s2)n1,3682,-9,6,x,-2.9,x,-10
COc1cccc(NC(=O)C2CCCN2S(=O)(=O)c2ccc3c(c2)C(C)(C)C(=O)N3C)c1 (stereo not drawn),5310,-23,11,8,0.2,6,8
O=C(C1CCC(=O)N1Cc1ccccc1Cl)N1CCN(c2ccc(F)cc2)CC1 (stereo not drawn),2793,-16,-2,13,-14,4,3
O=C(c1cnccn1)N(Cc1ccco1)C1(C(=O)NC2CCCC2)CCCCC1,u,-2,5,6,2.7,5,1
C=CCc1cc(Cl)ccc1OCCNCCOC,2044,5,2,7,0.1,7,-12
O=C(Nc1cccc(Cl)c1)c1cnc[nH]1,3486,-38,-4,-3,1.2,5,5
CCCCn1c(N)c(N(CCOC)C(=O)CSCc2ccccc2C)c(=O)[nH]c1=O,6282,-24,17,5,7.7,0,2
CCCn1c(=O)c(C(=O)Nc2ccccc2C(=O)OC)c(O)c2ccccc21,2360,9,1,0,13,-7,2
O=C(O)CCN1C(=O)c2ccc(Oc3ccc4c(c3)C(=O)N(CCC(=O)O)C4=O)cc2C1=O,19401*,-19,-5,1,8.6,11,-4
CCN1C(=O)/C(=C\c2ccc(F)cc2)N=C1SCC(=O)NCc1ccco1,7522,-17,x,x,x,x,-1
Cc1cccc(NC(=O)COc2ccccc2C)n1,8140,x,1,11,29,-2,-14
Cc1ccc(N2CC(C(=O)Nc3ccc4c(c3)OCCO4)CC2=O)cc1 (stereo not drawn),9440,-5,-4,3,2.7,0,-5
COc1ccc(CCNc2oc(COc3ccc(Br)cc3)nc2C#N)cc1OC,6102,-2,8,x,0.0,x,-9
COC1=CC(=Cc2c(N)n3nc(CC(=O)N4CCOCC4)sc3nc2=O)C=C(OC)C1=O,5410,-26,x,x,x,x,8
Cc1nc2c(C(=O)N3CCOCC3)cnn2c(C)c1Cc1cccc(Cl)c1,x,x,0,1,4.5,-3,5
COc1ccc(CC(=O)N2CC3(C)CC2CC(C)(C)C3)cc1OC (stereo not drawn),2655,-3,5,8,2.8,6,-7
O=C(NC1CCCCC1)C(c1ccncc1)N(Cc1ccc(F)cc1)C(=O)c1ccccn1 (stereo not drawn),4000,-18,2,18,3.1,12,-9
Cc1ccc(C(=O)CCC(=O)OCC(=O)N(CC(C)C)c2c(N)n(Cc3ccccc3)c(=O)[nH]c2=O)cc1,4482,9,-3,-15,1.2,-14,-6
CCC(=O)n1nc(-c2ccccc2)nc1N,4192,-15,6,3,1.5,8,-1
c1ccc(Nc2nc(N3CCCC3)nc(N3CCCC3)n2)cc1,20430*,-19,-11,9,6.8,3,-3
O=C(Cc1ccccc1)N1CCN(CCCc2ccccc2)CC1,4095,-16,0,-2,0.7,-10,-5
CC1CCN(C(=O)COC(=O)COc2ccccc2C#N)CC1,6544,-10,5,2,1.6,-4,x
CCCCC/C(=N\NC(=O)CCC(=O)NCc1ccccc1)c1ccccc1,2376,1,x,x,x,x,5
CCOc1ccc(N2C(=O)CC(Sc3ccccc3C(=O)O)C2=O)c([N+](=O)[O-])c1 (stereo not drawn),4550,-12,20,-7,8.9,12,x
CN(C)S(=O)(=O)n1cc(/C=C(\NC(=O)c2ccccc2)C(=O)N2CCOCC2)c2ccccc21,5488,-18,0,0,1.7,0,-2
COc1ccc(C(=O)/C=C(\N)C(F)(F)F)c(O)c1,10287,0,-6,-2,3.4,12,4
O=C(Nc1ccc(F)cc1F)c1cccnc1Oc1cccc(C(F)(F)F)c1,9781,x,2,1,6.9,4,5
O=C(O)CCCNC(=O)/C(=C\c1ccc(Cl)cc1)NC(=O)c1ccc(Br)cc1,4567,-8,7,-3,5.6,8,-5
COc1ccc(C(C)=NNC(=O)CNC(=O)CCc2ccccc2)c(OC)c1,x,x,5,8,2.4,12,x
C[N+](C)(C)CCN(Cc1ccc(Cl)cc1)c1ccccn1,6920,-11,5,10,1.9,3,5
C/C(=N\Nc1ccc(Cl)c(C(=O)O)c1)c1cccc2ccccc12,3631,-19,x,x,x,x,-8
Cc1ccc(CNC(=O)C(=O)NCC(c2ccco2)N2CCOCC2)cc1 (stereo not drawn),2168,-75,9,-4,5.9,2,-12
CS(=O)(=O)N1N=C(c2ccco2)CC1c1ccc(Cl)cc1Cl (stereo not drawn),4230,-10,1,10,2.8,-1,-1
CC(=O)c1ccc(NC(=O)CNCc2cccs2)cc1,3904,-19,-2,16,-1.2,8,0
CCN(CC)C(=N)C(C#N)=NNc1ccccc1,x,x,2,11,1.2,11,x
Cc1ccc(C)c(NS(=O)(=O)c2cc(C(=O)Nc3cccc(N(C)S(C)(=O)=O)c3)ccc2C)c1,11980,x,-9,0,6.0,1,19
CCOC(=O)c1c(NC(=O)COC(=O)CCCOc2ccc(OC)cc2)sc(C(=O)N(C)C)c1C,u,4,-2,-3,-7.0,-4,x
CC(C)N(CC#CCC1(O)c2ccccc2-c2ccccc21)C(C)C,2607,-9,3,7,2.9,-8,-6
CC(C)COC(=O)N1C[C@H](O)C[C@H]1C(=O)Nc1ccc(Cl)cc1,4183,-10,2,15,2.2,8,6

# New compounds follow
structure,Autofluor counter,PrP UTR inh,Sa ugtP lethal,Mtb hypoxia inh,Sa RN4220 lethal,Mtb hypoxia inh growth,BJeLR lethal
O=C(C1=C(O)/C(=C/c2ccc(O)cc2)CCC1)C(F)(F)F,5329,-6,-2,x,7.8,x,x
COc1cc2c(cc1NC(=S)NC(=O)c1c(OC)cccc1OC)oc1ccccc12,2296,-44,10,-3,2.7,3,x
C[n+]1ccccc1N1CCN(c2ccccc2Cl)CC1,2041,-1,5,8,4.3,2,-19
O=C(NNC(=O)c1sccc1-n1cccc1)c1ccc(F)cc1,3992,-16,15,-2,31,-6,6
Cc1c(C)n(C)c2ccc(C(=O)NCCCN3CCN(c4ccccc4F)CC3)cc12,6481,-15,-4,-1,-1.9,8,6
COc1ccc(NC(=O)CCSc2cc(C)c3ccccc3n2)cc1,2690,-11,2,24,-11,5,-2
COCCn1c(C)cc(C(=O)CSc2nc(C)nc3sc4c(c23)CCC4)c1C,8703,x,2,5,0.7,1,3
O=C(NCCCN1CCOCC1)C(=O)NCC1OCCN1S(=O)(=O)c1ccc(F)cc1 (stereo not drawn),5630,-10,6,5,1.9,9,16
Cc1c(C(=O)N2CCN(c3ncccn3)CC2)sc2nc3n(c(=O)c12)CCCC3,9046,-29,1,5,-1.7,2,-5
CC(C)N1CCN(c2ccncc2S(=O)(=O)N2CCOCC2)CC1,2663,-17,1,x,-1.4,x,2
CC(C)OC(=O)C1CC(C)(O)C(=O)C(C(=O)OC(C)C)C1c1ccc([N+](=O)[O-])cc1 (stereo not drawn),4252,-19,-6,1,3.5,17,-5

# As a working copy, part of the list above:
structure,Autofluor counter,PrP UTR inh,Sa ugtP lethal,Mtb hypoxia inh,Sa RN4220 lethal,Mtb hypoxia inh growth,BJeLR lethal
C/C(=N\Nc1ccc(Cl)c(C(=O)O)c1)c1cccc2ccccc12,3631,-19,x,x,x,x,-8
Cc1ccc(CNC(=O)C(=O)NCC(c2ccco2)N2CCOCC2)cc1 (stereo not drawn),2168,-75,9,-4,5.9,2,-12
CS(=O)(=O)N1N=C(c2ccco2)CC1c1ccc(Cl)cc1Cl (stereo not drawn),4230,-10,1,10,2.8,-1,-1
CC(=O)c1ccc(NC(=O)CNCc2cccs2)cc1,3904,-19,-2,16,-1.2,8,0
CCN(CC)C(=N)C(C#N)=NNc1ccccc1,x,x,2,11,1.2,11,x
Cc1ccc(C)c(NS(=O)(=O)c2cc(C(=O)Nc3cccc(N(C)S(C)(=O)=O)c3)ccc2C)c1,11980,x,-9,0,6.0,1,19
CCOC(=O)c1c(NC(=O)COC(=O)CCCOc2ccc(OC)cc2)sc(C(=O)N(C)C)c1C,u,4,-2,-3,-7.0,-4,x
CC(C)N(CC#CCC1(O)c2ccccc2-c2ccccc21)C(C)C,2607,-9,3,7,2.9,-8,-6
CC(C)COC(=O)N1C[C@H](O)C[C@H]1C(=O)Nc1ccc(Cl)cc1,4183,-10,2,15,2.2,8,6
O=C(C1=C(O)/C(=C/c2ccc(O)cc2)CCC1)C(F)(F)F,5329,-6,-2,x,7.8,x,x
COc1cc2c(cc1NC(=S)NC(=O)c1c(OC)cccc1OC)oc1ccccc12,2296,-44,10,-3,2.7,3,x
C[n+]1ccccc1N1CCN(c2ccccc2Cl)CC1,2041,-1,5,8,4.3,2,-19
O=C(NNC(=O)c1sccc1-n1cccc1)c1ccc(F)cc1,3992,-16,15,-2,31,-6,6
Cc1c(C)n(C)c2ccc(C(=O)NCCCN3CCN(c4ccccc4F)CC3)cc12,6481,-15,-4,-1,-1.9,8,6
COc1ccc(NC(=O)CCSc2cc(C)c3ccccc3n2)cc1,2690,-11,2,24,-11,5,-2
COCCn1c(C)cc(C(=O)CSc2nc(C)nc3sc4c(c23)CCC4)c1C,8703,x,2,5,0.7,1,3
O=C(NCCCN1CCOCC1)C(=O)NCC1OCCN1S(=O)(=O)c1ccc(F)cc1 (stereo not drawn),5630,-10,6,5,1.9,9,16

# No enrichment for hits (roughly 4% active in at least one column).
